D2 agonist – Beta-Arrestin HTS for Positive Allosteric Modulators of the Human D2 Dopamine Receptor: Agonists. activation, % (no concentration beside the values). DiscoveRx PathHunter D2 beta-arrestin, luminescence, 90 min; 100% = 57 uM dopamine signal. 0.084% of 360,000 active. AID 624465, 2012. D(2) dopamine receptor (Homo sapiens), P14416; in the data active = activation above about 40%; inconclusive = about 15% to 40%; inactive = below about 15%; further: compound concentration not given in the record; the text of the record calls up to 30% inactive
Target sequence (P14416 whole entry, looked up): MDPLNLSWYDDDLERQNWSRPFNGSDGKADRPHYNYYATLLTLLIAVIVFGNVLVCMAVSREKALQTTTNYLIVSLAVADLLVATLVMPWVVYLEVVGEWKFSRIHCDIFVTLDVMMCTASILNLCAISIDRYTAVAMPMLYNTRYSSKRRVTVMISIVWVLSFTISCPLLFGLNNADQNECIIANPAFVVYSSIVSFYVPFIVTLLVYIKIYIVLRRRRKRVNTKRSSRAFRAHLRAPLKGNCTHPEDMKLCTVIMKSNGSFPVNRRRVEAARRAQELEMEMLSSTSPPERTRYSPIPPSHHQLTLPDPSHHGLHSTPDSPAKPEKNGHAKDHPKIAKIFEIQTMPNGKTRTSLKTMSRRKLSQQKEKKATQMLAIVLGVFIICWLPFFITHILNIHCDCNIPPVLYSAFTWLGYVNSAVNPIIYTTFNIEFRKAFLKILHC
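DiscoveRx PathHunter D2 beta-arrestin cells (2,100/well) attached overnight, then compound-stimulated 90 min at 37 C in HBSS/10 mM HEPES/0.1% Tween-20 buffer; beta-galactosidase complementation read by luminescence after 1 h at ambient temperature. Dopamine 57 uM final (EC100) as control.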
D2 potentiator – Beta-Arrestin HTS for Positive Allosteric Modulators of the Human D2 Dopamine Receptor: Potentiators. DiscoveRx D2 beta-arrestin cells, luminescence, 90 min; 100% = 57 uM dopamine signal. AID 624464, 2012. D(2) dopamine receptor (Homo sapiens), P14416. 0.23% of 360,000 active. potentiation, % (test concentration not listed); active = potentiation of 50% or more; inconclusive = 30% to 50%; inactive = 30% or less;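 further: compound concentration not given in the record; tested on top of an EC20 dose of dopamine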
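D2 cells co-treated with compound plus 50 nM dopamine (EC20) for 90 min at 37 deg C to detect potentiation. Beta-arrestin recruitment was read as enzyme-fragment luminescence after 1 h at ambient temperature. Full response was set by 57 uM dopamine.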
CtBP-E1A inh – qHTS Assay for Inhibitors of the CtBP/E1A Interaction | CtBP / adenovirus E1A interaction (AlphaScreen) | AlphaScreen GST-E1A/His-CtBP binding, 1536-well; stronger effect = lower value; control for the full effect not named in the record | activity change, % (no concentration beside the values) | 0.49% of 340,000 active; in the data active means activity change below about -65%; inconclusive means about -30% to -65%; inactive means above about -30%; further: on the % scale 0 is the no-effect control and ±100 the full control effect; compound concentration not given in the record
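Steps: dispense buffer (Tris pH 8.0, NaCl 300 mM, TCEP 1 mM, BSA, Tween 20); add 5X protein mix (GST-E1A, His-CtBP, 125 nM each); pin 23 nL compound; 2 h at 37 °C, dark; add 5X beads (50 ug/mL); 1 h; read.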
PINK1 modulator – A Quantitative High throughput Screen to Identify Chemical Modulators of PINK1 Expression | PINK1 immunofluorescence, high-content cytometry, 24 h | Potency, µM (series often up to 76.6 µM), without a hit: at the highest dose activation (PINK1 increase), most hits filed as activators | 0.2% of 410,000 active | AID 624263, 2012; active = well fitted activation curve with a large enough effect; inconclusive = small, poorly fitted or top-dose-only effect; inactive = flat fitted curve, though single readings scatter; cell line not stated here;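 further: potency means the concentration at half of the fitted maximal effect; % of control where 0% means no effect; nearly all actives have a fitted effect of over 65% in size; a mitochondrial uncoupler was the plate control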
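Compound titrations (5 concentrations, 24 h) on a stable cell line; DMSO and CCCP controls. Endpoint: fixed-cell PINK1 immunofluorescence with mitochondrial, cell and nuclear markers, scanned by microplate cytometer.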
TRPML1 ag – qHTS for Agonists of the Human Mucolipin Transient Receptor Potential 1 (TRPML1); TRPML1-expressing cells, Ca2+ dye fluorescence, FDSS; host cell line not named in the record; reference of the full effect not given here; activation, % (no concentration beside the values); 0.12% of 410,000 active; AID 624414, 2012; in the data active = activation above about 50%; inconclusive = about 30% to 50%; inactive = below about 30%; further: 0% is about no effect; the text of the record puts the active cut at 80%
Target sequence (Q9GZU1 whole entry, looked up): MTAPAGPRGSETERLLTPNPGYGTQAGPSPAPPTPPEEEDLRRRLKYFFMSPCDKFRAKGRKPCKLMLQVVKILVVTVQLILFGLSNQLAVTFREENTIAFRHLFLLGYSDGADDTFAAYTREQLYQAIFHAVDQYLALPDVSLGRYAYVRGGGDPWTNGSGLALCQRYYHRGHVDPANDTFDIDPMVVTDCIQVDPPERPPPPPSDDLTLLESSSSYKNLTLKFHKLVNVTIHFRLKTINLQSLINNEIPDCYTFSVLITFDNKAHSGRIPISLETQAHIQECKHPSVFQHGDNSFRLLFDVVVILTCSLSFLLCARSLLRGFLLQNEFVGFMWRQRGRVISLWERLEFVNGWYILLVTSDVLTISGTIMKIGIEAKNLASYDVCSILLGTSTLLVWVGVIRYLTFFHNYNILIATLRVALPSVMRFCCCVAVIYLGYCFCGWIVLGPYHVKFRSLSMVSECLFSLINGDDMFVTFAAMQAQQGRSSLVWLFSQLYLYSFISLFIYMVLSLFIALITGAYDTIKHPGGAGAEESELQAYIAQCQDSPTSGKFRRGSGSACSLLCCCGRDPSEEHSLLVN
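Kinetic FDSS Ca2+ read in Tet-induced TRPML1-DL cells (ABD Ca8 dye plus quencher, 45-90 min RT loading): baseline, then compound, then 110 s agonist window; EC80 agonist 54-4 at 4uM final added afterwards for a 110 s antagonist window.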
Six1-Eya2 inh – qHTS Assay for Inhibitors of the Six1/Eya2 Interaction. Homeobox protein SIX1 (Homo sapiens) + Protein phosphatase EYA2 (Homo sapiens), …. AlphaScreen GST-Six1/His-Eya2 binding, biochemical; stronger effect = lower value; control for the full effect not named in the record. activity change, % (no concentration beside the values). 0.56% of 360,000 active. AID 651725, 2012; in the data active = activity change below about -65%; inconclusive = about -30% to -65%; inactive = above about -30%; further: on the % scale 0 is the no-effect control and ±100 the full control effect; compound concentration not given in the record
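Compounds are tested against tagged Six1 and Eya2 proteins bridged by glutathione donor and nickel acceptor beads; after a one-hour incubation at 37 °C without light, AlphaScreen emission is recorded.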
* = called active by the depositor; ? = inconclusive; · = not tested or not shown; & = joins results of further samples; [ ] = another dose, or the depositor's remark.

SMILES | D2 agonist | D2 potentiator | CtBP-E1A inh | PINK1 modulator | TRPML1 ag | Six1-Eya2 inh
CCN(CC(=O)Nc1cc(Cl)ccc1C)C(=O)C1CC(=O)N(Cc2ccccc2)C1 (configuration not stated) | 3.2 | -13 | -1 | -3.2% | 0.9 | 3
CCC1COCCS(=O)(=O)N1Cc1ccccc1 (configuration not stated) | -2.5 | -9 | -19 | 0.6% | 0.1&-0.8 | -2
Cc1c(Cl)cccc1NC(=S)NCC(O)c1ccccc1 (configuration not stated) | 1.9 | -1 | -12 | 0.9% | -0.1 | 12
O=C(CN1CCCCCC1)Nc1ccccc1Cl | -3.5 | -42 | · | 1.9% | 1.1 | 14
CC1CCN(C(=O)CSc2ccc(-c3cccc([N+](=O)[O-])c3)nn2)CC1 | -1.6 | 1 | 2 | 5.0% | 4.3 | -9
Cc1c(NC(=O)CSc2ccc(Cl)cc2)cccc1-c1nc2cc(Cl)ccc2o1 | -2.9 | -22 | 9 | ? | 1.5 | 7
CCCCc1nnc(NC(=O)CC(=O)Nc2ccccc2C(=O)O)s1 | 1.1 | -12 | -10 | 1.7% | 0.1 | 6
COC(=O)CSc1ncc(S(=O)(=O)c2ccccc2)c(=O)[nH]1 | 1.1 | -3 | 6 | 1.8% | 0.0 | -3
COc1ccc(NC(=S)N(CCC(C)C)C2CCN(C(C)C)CC2)cc1 | -3.0 | -24 | 24 | -0.8% | · | -16
Cc1cc(=O)n2c3c(cccc13)CCC2 | -4.2 | -6 | -1 | 2.9% | 0.2 | -5
Cc1cccc(NC(=O)CSc2nc(C)c(Cc3ccccc3)c(=O)[nH]2)c1 | -0.9 | -6 | -10 | 2.0%&-0.9% | 4.0&0.2 | -10
COc1cc(C(=O)NCC(c2cccs2)N2CCOCC2)ccc1OCc1ccccc1 (configuration not stated) | -4.0 | -17 | -10 | 2.2% | -0.1 | 35
CCN1CCCCC(=N/O)/C(=N/O)CCCC1 | -5.6 | -18 | · | 0.7% | 0.8 | 27
O=c1c(Cc2ccc(F)cc2)c(O)ccn1CC1CCCO1 (configuration not stated) | -1.7 | -7 | · | -0.2% | -0.3 | 12
CCOc1ccc(CCNC(=O)c2ccc(C)c(NC3=NC4CS(=O)(=O)CC4S3)c2)cc1 (configuration not stated) | -4.0 | -12 | -1 | -0.2% | -0.2 | -3
COc1cc(C(=O)NCC(=O)N/N=C\C(C)=C/c2ccccc2)cc(OC)c1OC | 0.4 | -5 | -30 | 3.2% | 3.1 | 2
O=C1NCCCc2c1no[n+]2[O-] | -2.7 | -3 | -3 | 3.0%[38.3 µM] | 1.1 | 3
Nc1nc(-c2ccc(Br)cc2)cc(C(F)(F)F)n1 | -2.3 | -3 | 8 | 1.4% | 1.1 | 7
CCn1c(O)c(/C=C/C=C/C=Nc2ccccc2)sc1=S | 1.7 | 3 | -14 | -0.1% | -0.1 | 5
CC(C)C1OC2c3cccc4cccc(c34)C2N1c1ccccc1 (configuration not stated) | -17 | -48 | -1 | 3.4% | -1.1 | -3
CCNc1ccc(P(=O)(c2ccccc2)c2ccccc2)cc1 | -2.6 | -4 | · | 0.5% | -0.7 | 2
CCOC(=O)c1cc2c(ccn2C)n1CC(=O)N(Cc1ccccc1)c1ccc(F)cc1 | -0.2 | -17 | 0 | 9.6% | 0.4 | 5
COc1ccccc1N1CCN(S(=O)(=O)c2c(C)sc3ncn(CC(=O)NCCN(C)C)c(=O)c23)CC1 | 0.0 | 1 | 1 | -0.7%&-0.1% | 1.5&0.8 | -16
COc1ccccc1/C=C/C=N\N1CCN(Cc2ccccc2Cl)CC1 | -5.2 | -30 | 9 | 15% | 1.1 | ?
CCOc1ccc(S(=O)(=O)Nc2ccc3c(c2)OCO3)c2cccnc12 | 2.9 | 1 | -16 | -1.8% | 1.3 | -16
O=C(/C=C/c1ccccc1[N+](=O)[O-])Nc1ccc(S(=O)(=O)Nc2ncccn2)cc1 | -2.0 | 4 | -3 | -0.3% | 0.0 | -6
O=C(OCc1cccc([N+](=O)[O-])c1)c1ccc2ccccc2n1 | -1.5 | -6 | -1 | 1.4% | 1.3 | -8
CSCC[C@H](NC(=O)[C@@H]1Cc2ccccc2CN1)C(=O)NC(C)c1ccccc1 (some centres not stated) | 3.0 | -6 | 2 | 0.4% | 0.4 | 1
O=C(O)c1oc2ccccc2c1CSc1ccccn1 | -2.5 | -6 | 12 | -2.4% | -1.0 | 10
CC(C)n1nnnc1SCC(=O)Nc1cccc(F)c1 | 1.5 | -4 | 1 | -0.4% | 0.8 | 6

Arranged by value in D2 agonist (highest first): some entries from above
SMILES	D2 agonist
CCCCc1nnc(NC(=O)CC(=O)Nc2ccccc2C(=O)O)s1	1.1
O=C1NCCCc2c1no[n+]2[O-]	-2.7
COc1ccc(NC(=S)N(CCC(C)C)C2CCN(C(C)C)CC2)cc1	-3.0

Continuation.
SMILES | D2 agonist | D2 potentiator | CtBP-E1A inh | PINK1 modulator | TRPML1 ag | Six1-Eya2 inh
Cn1c(N)c(C(=O)c2cc(-c3ccccn3)nc3ccccc23)c(=O)[nH]c1=O | -1.4 | -4 | -8 | 1.3% | -0.1 | -4
Cc1cccc(C)c1NC(=O)CN(C)CC(=O)Nc1sc2c(c1C(N)=O)CCC2 | -5.9 | -33 | 144 | -0.3% | 1.4 | 62
Cc1ccc(OCc2n[nH]c(=S)n2-c2ccccc2)cc1C | -0.7 | -9 | 5 | 1.2% | -0.2 | 3
Cn1c(SCc2ccc(C(=O)Nc3nccs3)cc2)nnc1-c1ccccc1 | 1.4 | 0 | -14 | ? | 2.1 | -11
CCCCC[C@@H](C)N1C[C@@H](COCc2ccccc2)Oc2cc(N3CC[C@H](N(C)C)C3)ccc2S1(=O)=O | · | · | -5 | -1.3% | -0.1 | -24
CCNC(=S)N1CCC(n2cnc3ccccc32)CC1 | 4.6 | -11 | 3 | 0.2% | 3.4 | 9
Nc1nc(N)nc(COc2ccccc2)n1 | 3.2 | 0 | -3 | -3.8% | 0.6 | 9
CC(=O)C[C@@H](O)CC(=O)[C@@H]1OC(=O)CCCCCc2ccccc21 | -0.3 | · | 7 | -0.2% | -0.4 | -1
O=S(=O)(c1cccc2ccccc12)n1nnc2ccccc21 | 0.0 | -11 | -2 | 4.3% | 0.2 | 4
CC(=O)c1cc(C#N)c(SCc2ccc([N+](=O)[O-])cc2)nc1C | -3.5 | -3 | 0 | 12% | 0.0 | 2
O=C(O)/C=C/C(O)c1ccc(Cl)cc1 (configuration not stated) | 2.6 | -5 | 3 | 0.3% | 0.1 | -3
Cn1ccnc1SCC(=O)Nc1ccc(F)c([N+](=O)[O-])c1 | -6.1 | -5 | 1 | 1.5% | 0.1 | 0
O=C(O)CCN1C(=O)C2C3CC(C2C1=O)C1C(c2ccccc2)c2sc(=O)n(-c4ccccc4)c2SC31 (configuration not stated) | 2.7 | -1 | -1 | -1.3% | 0.3 | -2
CN1CCN(c2cc(=O)n(C3CCCCC3)c(=O)[nH]2)CC1 | -5.8 | 0 | -12 | 0.4% | -0.1 | 1
CN1C(=O)C(=O)N(c2cccc(C(F)(F)F)c2)C1=O | -3.2 | 1 | 4 | 1.1% | -0.4 | 0
CCN(CC(=O)Nc1ccccc1Br)Cc1nc2ccccc2c(=O)[nH]1 | 1.0 | 0 | 0 | 3.0% | -0.1 | 2
CCOc1nc(Nc2ccc(OC)c(Cl)c2)nc(OCC)n1 | -3.5 | -11 | -14 | 2.3% | 1.2 | -22
CC(C)(C)c1ccc(N2C(=O)CSC2c2cccnc2)cc1 (configuration not stated) | 3.7 | -12 | 0 | 1.9% | 0.4 | 7
O=C(NNC(=O)c1n[nH]c(=O)c2ccccc12)c1ccc(Br)cc1 | -1.9 | -2 | 5 | 0.0% | 0.0 | -3
Cc1ccc(OC(=O)c2ccc3c(=O)n4c(nc3c2)CCC4)cc1 | -1.2 | ? | -3 | 0.5% | -0.7 | -6
Cc1onc(-c2c(Cl)cccc2Cl)c1C(O)c1ccccc1 (configuration not stated) | 0.4 | 1 | 9 | 1.0% | -1.1 | 1
CCOCCCNCc1cc(Cl)cc(Cl)c1OCC | -4.6 | -9 | · | -1.4% | -0.7 | 6
CC(NC(=O)CN(C)S(=O)(=O)c1ccc2c(c1)c(=O)n(C)c(=O)n2C)c1ccccc1 (configuration not stated) | -4.9 | -10 | · | -1.1%&-1.1% | -0.3&0.2 | ?
Cc1cc2oc(C(=O)N(Cc3ccco3)C3CCS(=O)(=O)C3)cc(=O)c2cc1Cl (configuration not stated) | -0.9 | -15 | -9 | 2.5%[38.3 µM] | -0.6 | -3
C/C(=N/NC(=O)c1cc2ccccc2cc1O)C1C(=O)c2ccccc2C1=O | -3.9 | -6 | -10 | -1.9% | 1.0 | -25
Cc1ccc(/C=N/n2cc(-c3ccccc3)[nH]c2=S)s1 | -6.6 | -6 | -1 | 3.2% | -0.1 | -4
CC1CCCN(CCCOc2ccc([N+](=O)[O-])cc2)C1 (configuration not stated) | -1.6 | -37 | -8 | -0.7% | -0.3 | 0
Cc1ccsc1/C=N/NC(=O)Cn1nc(C)c([N+](=O)[O-])c1C | -5.3 | -6 | 0 | 0.7% | 0.1 | 22
CCCCNC(=O)c1onc(CSc2cc(C)ccc2C)c1C(=O)O | 0.6 | -2 | 4 | -0.4% | -0.5 | 4
O=C(COC(=O)c1c[nH]c2ccccc12)NCc1ccccc1 | -1.1 | -16 | 1 | -0.5% | 0.4 | 4
CCOc1ccc(/C(O)=C2/C(=O)C(=O)N(c3ncccn3)C2c2ccc(Cl)cc2)cc1 (configuration not stated) | -4.9 | -3 | -7 | -1.4% | -0.9 | 8
CN(C)S(=O)(=O)c1c(Cl)cccc1Cl | 1.5 | -1 | 6 | 5.1%[38.3 µM] | -0.2 | 1
CC1(NC(=S)Nc2ccccc2)CCS(=O)(=O)C1 (configuration not stated) | -4.5 | 0 | -1 | 2.4% | -0.5 | -4
Cc1cc2c(cc1C)NC(=O)CC(c1ccccc1)=N2 | -3.7 | -15 | 6 | 15% | 0.3 | 0
O=C(Nc1cccc(C(=O)N2CCOCC2)c1)c1cccnc1 | -2.6 | -1 | -3 | 2.7%[38.3 µM] | 1.1 | 4
Cc1ccc(S(=O)(=O)/C(C#N)=C/c2c(N3CC(C)OC(C)C3)nc3c(C)cccn3c2=O)cc1 (configuration not stated) | -0.2 | -10 | -4 | · | 0.6 | 9

By substructure, those above containing a furan ring, fused or not
SMILES | D2 agonist | D2 potentiator | CtBP-E1A inh | PINK1 modulator | TRPML1 ag | Six1-Eya2 inh
O=C(O)c1oc2ccccc2c1CSc1ccccn1 | -2.5 | -6 | 12 | -2.4% | -1.0 | 10
Cc1cc2oc(C(=O)N(Cc3ccco3)C3CCS(=O)(=O)C3)cc(=O)c2cc1Cl (configuration not stated) | -0.9 | -15 | -9 | 2.5%[38.3 µM] | -0.6 | -3

High-throughput results from PubChem BioAssay.
